GALR2 agonist – agonists of human galanin receptor 2 (GALR2). O43603. GALR2-expressing cells, agonist activation read-out. activation, %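 (tested at 5 µM)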. 140,000 tested, 0.48% active. AID 803;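 active means above mean plus 3 SD of all compounds, about 5% in these data, not always enough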;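 further: 0% = vehicle buffer wells and 100% = reference agonist at full effect; tested in CHO reporter cells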
HSV augment – increases HSV replication in cells | HSV replication augmentation in cells, fold increase | maximum fold increase | 220,000 tested, 0.005% active;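 active means peak rise of 1.5-fold or more in the series; inconclusive means self-fluorescent or not available for retest; tested in PC3 cells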;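 further: first round at 10 µM; read as green reporter fluorescence; hits show the peak of a series up to 25 µM; 1 = signal of infected wells without compound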
RGS16-Gao – regulators of human RGS16-Galphao interaction | bead-based flow cytometry RGS16-Galphao binding, fluorescence; actives lie on both sides | binding response (% of control), % at 10 µM | O15492+P09471 | 220,000 tested, 0.38% active;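 active means below 25% or above 175%, edge rows of some plates excepted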;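 further: Galphao activated by GDP with aluminum fluoride before binding; 100% = wells without compound and 0% = beads without RGS; some results beyond the cut were filed as inactive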
Insulin prom inh – TRM-6 insulin promoter activity inhibition. TRM-6 cells (human fetal islet line), insulin promoter-eGFP reporter, imaging; reporter expression induced with tamoxifen. inhibition, % at 2 µM. 130,000 tested, 0.9% active. AID 1273;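 active means inhibition above the mean plus 3 SD, with well images judged a real hit on visual review, cut at about 60% in these data, passing the limit was not always enough; inconclusive means inhibition over the cutoff but images rejected on review; inactive means inhibition not above the cutoff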
PKD1 inh – blocks activity of human protein kinase D1 | Q15139 | PKD1 kinase fluorescence polarization assay | inhibition, %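 (about 10 µM by stock and volumes)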 | 200,000 tested, 0.056% active;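 active means inhibition of 50% or more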;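 further: controls were vehicle for no effect and a reference inhibitor for full effect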
Target sequence (Q15139 whole entry, looked up): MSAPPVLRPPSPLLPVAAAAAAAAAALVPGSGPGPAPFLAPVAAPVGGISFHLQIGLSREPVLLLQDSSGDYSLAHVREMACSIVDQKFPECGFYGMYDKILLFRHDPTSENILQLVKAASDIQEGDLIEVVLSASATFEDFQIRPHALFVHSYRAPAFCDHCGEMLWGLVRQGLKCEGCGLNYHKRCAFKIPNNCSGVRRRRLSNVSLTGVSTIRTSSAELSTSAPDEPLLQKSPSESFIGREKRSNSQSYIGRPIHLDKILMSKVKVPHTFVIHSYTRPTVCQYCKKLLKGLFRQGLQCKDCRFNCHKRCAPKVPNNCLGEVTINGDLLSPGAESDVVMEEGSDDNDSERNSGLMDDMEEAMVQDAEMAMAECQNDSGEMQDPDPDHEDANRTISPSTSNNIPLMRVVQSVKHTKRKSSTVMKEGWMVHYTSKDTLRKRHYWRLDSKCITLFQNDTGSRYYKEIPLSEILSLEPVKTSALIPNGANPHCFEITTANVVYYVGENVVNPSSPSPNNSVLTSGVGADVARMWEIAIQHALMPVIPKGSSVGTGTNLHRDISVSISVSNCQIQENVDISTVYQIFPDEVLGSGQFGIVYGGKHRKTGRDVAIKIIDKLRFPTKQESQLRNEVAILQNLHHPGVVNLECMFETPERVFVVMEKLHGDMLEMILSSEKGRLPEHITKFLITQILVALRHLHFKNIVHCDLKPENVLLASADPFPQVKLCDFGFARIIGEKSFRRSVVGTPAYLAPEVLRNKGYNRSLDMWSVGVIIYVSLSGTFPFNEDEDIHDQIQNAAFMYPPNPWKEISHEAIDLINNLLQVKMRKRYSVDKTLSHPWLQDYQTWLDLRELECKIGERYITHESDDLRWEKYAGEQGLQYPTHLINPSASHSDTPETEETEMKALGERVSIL
Insulin prom inh cell count – second read-out of Insulin prom inh, no call of its own (marks repeat the call); normalized cell count, %; measured here: cell count, toxicity; reference of the scale not given here;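 cells exposed to compound for 48 h; stained nuclei by imaging scaled within each plate; lower means fewer cells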
HSV augment primary fold – recorded beside HSV augment, whose call it bears; fold increase; compound at 10 µM; measured here: primary screen fold increase 10 uM; tested in PC3 cells;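 GFP signal in the first replicate; 1 = infected wells without compound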
Starred values were filed as active, the others as inactive; i = inactive; ? = inconclusive; nt = no result given. Outcome played no part in choosing rows (roughly 1.3% active in at least one column).

| structure | GALR2 agonist | HSV augment | HSV augment primary fold | RGS16-Gao | Insulin prom inh | Insulin prom inh cell count | PKD1 inh |
| --- | --- | --- | --- | --- | --- | --- | --- |
| CCOC(=O)CSC1=C(C#N)C(c2ccccc2OCC)C(C(=O)OCC)C(=O)N1 (configuration not stated) | -2.2 | i | 0.98 | 76.6 | nt | nt | -1.2 |
| C=CCOc1ccc(CNc2nccs2)cc1OCC | -3.9 | i | 0.9 | 102.4 | -235.1 | 69.1 | -0.4 |
| CC1(C)CC(OC(=O)c2ccccc2)CC(C)(C)N1 | -0.9 | i | 1.04 | 101.7 | -25.8 | 43.6 | 2.3 |
| C/C(=N/NC(=O)CNC(=O)COc1ccccc1)c1ccco1 | -2.2 | i | 0.97 | 94.3 | -50.0 | 99.2 | 1.1 |
| COc1ccc(-c2nc(C)ncc2-c2csc(C)n2)c(O)c1 | -1.9 | i | 1.01 | 98.8 | -25.0 | 186.7 | -5.3 |
| CC1CCc2c(sc(NC(=O)CSc3nc4c(c(C(F)(F)F)n3)CCc3ccccc3-4)c2C(N)=O)C1 (configuration not stated) | -1.4 | i | 1.03 | 99.3 | nt | nt | 0.3 |
| COc1ccc(CNC(=O)c2cnc(C)cn2)c(OC)c1 | -0.2 | i | 1.2 | 94.1 | nt | nt | -6.4 |
| COc1ccc(C(=O)Nc2cc(C)on2)cc1[N+](=O)[O-] | nt | i | 1.02 | 101.5 | 66.7 | 128.6 | -5.3 |
| O=C(NCc1ccc2c(c1)OCO2)c1cnc2ccccn2c1=O | -1.9 | i | 0.84 | 99.5 | nt | nt | -8.7 |
| Cc1ccc(NC2c3ccccc3C(=O)N2c2cccnc2)cc1 (configuration not stated) | nt | i | 0.96 | 101.5 | nt | nt | nt |
| CCCCc1nnc(NC(=O)COc2ccc3c(C)cc(=O)oc3c2)s1 | nt | i | 1.07 | 98.7 | nt | nt | nt |
| CC12CCC(C(=O)N/N=C/c3ccc(O)cc3)(OC1=O)C2(C)C (configuration not stated) | nt | i | 1.12 | 93.8 | nt | nt | nt |

Overlap with the part before: 3 compounds, followed by the next part.
| structure | GALR2 agonist | HSV augment | HSV augment primary fold | RGS16-Gao | Insulin prom inh | Insulin prom inh cell count | PKD1 inh |
| --- | --- | --- | --- | --- | --- | --- | --- |
| Cc1ccc(NC2c3ccccc3C(=O)N2c2cccnc2)cc1 (configuration not stated) | nt | i | 0.96 | 101.5 | nt | nt | nt |
| CCCCc1nnc(NC(=O)COc2ccc3c(C)cc(=O)oc3c2)s1 | nt | i | 1.07 | 98.7 | nt | nt | nt |
| CC12CCC(C(=O)N/N=C/c3ccc(O)cc3)(OC1=O)C2(C)C (configuration not stated) | nt | i | 1.12 | 93.8 | nt | nt | nt |
| CC(=O)c1cccc(Nc2cc(C)nc3c(C)cccc23)c1 | nt | i | 0.92 | 106.7 | nt | nt | nt |
| Cc1ccc(C2=N/C(=C\c3c(C)nn(-c4ccccc4)c3N3CCCC3)C(=O)O2)cc1 | -0.1 | i | 0.97 | 96.3 | -53.3 | 87.6 | -16.3 |
| O=C(NCCNC(=O)C(c1ccccc1)c1ccccc1)c1ccco1 | 1.3 | i | 1.14 | 105.0 | -12.5 | 97.2 | 4.3 |
| N#CC1=C(N)SC(N)=C(C#N)C1c1ccc(C(F)(F)F)cc1 | -0.2 | ? | nt | 102.8 | -113.2 | 73.4 | -5.7 |
| CCOC(=O)NC(=O)COC(=O)c1cccc2ccccc12 | nt | i | 0.96 | 105.3 | nt | nt | 8.5 |
| CCO[C@H]1OC(C(=O)N2CCN(C)CC2)=C[C@@H](C(C)(C)C)[C@@H]1CCCO | nt | i | 0.94 | 98.6 | nt | nt | -1.6 |
| COc1ccc(N2CCN(C(=O)CCS(=O)(=O)c3cccc4nsnc34)CC2)cc1 | 0.5 | i | 1.02 | 137.8 | nt | nt | -3.8 |
| CN(CCCCCCCCC(=O)/C=N/O)Cc1ccccc1 | -4.4 | i | 0.97 | 84.5 | -30.0 | 175.7 | -5.7 |
| Cc1cccc(OCCCC(=O)Nc2ccc(Br)cc2)c1 | -2.2 | i | 0.9 | 96.6 | 3.6 | 107.6 | 2.6 |
| Cc1ccc(OCCNC(=O)c2cc(C(=O)NCCOc3ccc(C)cc3)cc([N+](=O)[O-])c2)cc1 | -0.9 | i | 1.03 | 110.3 | -17.2 | 107.2 | 0.4 |
| Cn1c(=O)c2c(nc(Cl)n2Cc2ccncc2)n(C)c1=O | 1.9 | i | 0.94 | 104.5 | 21.9 | 114.3 | -2.5 |
| CCC(C)NC(=O)c1cccc(C)c1 (configuration not stated) | nt | i | 1.03 | 97.6 | nt | nt | nt |
| CCCCCC(=O)NC(=S)NC1C2CC3CC(C2)CC1C3 (configuration not stated) | nt | i | 1.11 | 97.4 | nt | nt | nt |
| Cc1cc(C)c2nc3nc(C)c(C)cc3c(N)c2c1 | nt | i | 0.7 | 101.2 | nt | nt | 0.9 |
| Cc1ccc(Oc2ccc(-c3nnc(-c4ccccc4)o3)cc2[N+](=O)[O-])cc1C | -0.3 | i | 0.97 | 104.9 | -29.6 | 130.6 | -3.0 |
| C=C(C)Cn1c(COc2ccccc2)nnc1SCC(=O)O | -0.9 | i | 0.83 | 97.9 | 15.0 | 117.4 | -1.0 |
| COc1ccc(/C=C2\CN(Cc3ccccc3)C/C(=C\c3ccc(OC)cc3)C2=O)cc1 | -0.9 | i | 1.02 | 101.6 | 0.0 | 88.3 | -4.2 |
| CCSc1ccccc1C(=O)NCCCn1ccnc1 | -0.5 | i | 0.96 | 178.9 | -8.6 | 150.0 | -3.6 |
| Cc1ccccc1Nc1ncccc1C(=O)N1CCOCC1 | -1.2 | i | 0.91 | 89.6 | 0.0 | 105.3 | -2.1 |
| Cc1cc(C)c(C#N)c(OCC(=O)c2ccccc2)n1 | -4.5 | i | 0.75 | 102.6 | nt | nt | -2.1 |
| CCN(CC)C(=O)C1=C(C)NC(=O)NC1c1ccccc1F (configuration not stated) | -1.9 | i | 1.23 | 97.7 | 33.3 | 71.4 | -4.4 |
| CCCC(C(=O)NC1CCCCC1)N(CC1CCCO1)C(=O)CNS(=O)(=O)c1ccc(F)cc1 (configuration not stated) | -0.8 | i | 0.91 | 101.9 | nt | nt | -0.6 |
| CC(C)CCn1c(NCCc2ccccc2)nc2c1c(=O)n(C)c(=O)n2C | nt | i | 0.88 | 97.8 | nt | nt | nt |
| Cc1cccc(C)c1NC(=O)COC(=O)Cc1ccsc1 | -0.6 | i | 0.88 | 99.0 | 66.7* | 236.9* | -5.7 |
| Cc1cccc2cc(CN(Cc3nnnn3Cc3ccco3)C3CCCC3)c3nnnn3c12 | -0.7 | i | 0.76 | 99.7 | -20.0 | 106.5 | -3.0 |
| CN(Cc1ccccc1)S(=O)(=O)c1ccc2c(c1)n(C)c(=O)n2C | 0.2 | i | 0.81 | 103.3 | -28.9 | 65.3 | -6.8 |
| COc1ccccc1OCc1ccc(C(=O)N2CCN3CCCC3C2)cc1 (configuration not stated) | -0.9 | i | 0.89 | 107.5 | -25.7 | 66.9 | 6.4 |
| COc1ccc(/C=N/N=C/c2ccc(OC)c(OC)c2)cc1OC | -0.7 | i | 1.05 | 105.1 | nt | nt | -4.0 |
| O=C(Nc1cccn(Cc2ccccc2Cl)c1=O)NC1CCCCC1 | nt | i | 0.9 | 101.8 | nt | nt | -8.1 |
| COc1ccc(Cl)cc1S(=O)(=O)NCc1cccnc1 | -2.7 | i | 1.11 | 105.6 | 22.9 | 183.2 | -3.1 |
| CC(C)Cn1c(SCC(=O)c2c(N)n(C)c(=O)n(C)c2=O)nc2ccccc21 | -0.9 | i | 0.9 | 98.6 | -60.0 | 118.2 | -4.0 |
| CC1OC(C)(C)OC1C1CNc2nc(NC(=O)C(C)(C)C)[nH]c(=O)c2N1C(=O)c1cccnc1 (configuration not stated) | 0.3 | i | 0.92 | 101.1 | 6.9 | 117.6 | -4.2 |
| Cc1onc(-c2ccccc2)c1C(=O)N/N=C/c1cc2c(cc1Cl)OCO2 | -0.8 | i | 0.95 | 99.8 | nt | nt | -4.1 |
| O=c1[nH]c(CSc2cccc[n+]2[O-])nc2ccccc12 | nt | i | 0.93 | 99.1 | nt | nt | nt |
| O=c1c(-c2ccc3c(c2)OCCO3)coc2cc(OC3OC(CO)C(O)C(O)C3O)ccc12 (configuration not stated) | nt | i | 0.81 | 105.4 | nt | nt | nt |
| O=C(COC(=O)c1cncc(Br)c1)NCc1ccc(F)cc1 | nt | i | 0.97 | 100.8 | nt | nt | 1.7 |
| CCOc1ccc2sc(NS(=O)(=O)c3ccc(OC)c(OC)c3)nc2c1 | -0.5 | i | 1 | nt | 7.9 | 100.0 | -6.5 |
| CN/N=C/c1ccc(C#N)cc1 | nt | i | 0.89 | 103.5 | 50.0 | 74.1 | 3.1 |
| COc1ccc(-c2cc(C(F)F)n3ncc(C(=O)NCCCN4CCCC4=O)c3n2)cc1 | 0.3 | i | 1.07 | 104.0 | nt | nt | -4.5 |
| Brc1ccc(-c2csc(Nc3nc(-c4ccc(Br)cc4)cs3)n2)cc1 | nt | i | 1.15 | 102.4 | nt | nt | nt |
| COc1ccc(NC(=O)c2ccc(-n3nc(C)cc3C)cc2)cc1OC | -0.1 | i | 0.97 | 86.6 | -11.4 | 138.7 | -1.1 |
| CCN(c1ccccc1)S(=O)(=O)c1ccc(N)cc1 | -2.5 | i | 0.96 | 100.6 | nt | nt | -7.8 |
| O=C(Nc1ccnc(-c2ccncc2)n1)c1ccc(Cl)cc1 | nt | i | 1.01 | 106.7 | nt | nt | -3.9 |
| Cc1cnc(C(=O)OCC(=O)NCc2ccccc2)cn1 | -1.5 | i | 0.91 | 105.5 | -10.3 | 113.2 | -11.3 |
| CN(C)C(=O)COC(=O)/C=C/c1ccccc1[N+](=O)[O-] | -2.3 | i | 1.03 | 103.7 | 60.0 | 24.4 | -3.7 |
| CC1(C)Cc2nc3sc4c(N5CCCC5)nnnc4c3cc2CO1 | nt | i | 0.89 | 112.1 | -60.0 | 147.1 | -5.5 |
| COc1ccc(Cn2c(O)c(C=Nc3ccccc3)c3ccccc3c2=O)cc1 | -0.8 | i | 0.96 | 113.2 | 20.0 | 69.2 | 3.5 |
| COC(=O)c1cc(C(=O)c2ccc(Cl)cc2Cl)cn1C | -0.8 | i | 0.99 | 137.8 | 30.0 | 84.6 | -2.9 |
| O=C(/C=C/c1ccccc1)N(Cc1cccc(Cl)c1)C1CCS(=O)(=O)C1 (configuration not stated) | nt | i | 1.03 | 99.6 | nt | nt | nt |
| Cc1cc(C(=O)NCc2cccnc2)no1 | -1.7 | i | 1.05 | 101.4 | nt | nt | -8.9 |
| COc1cccc(-n2c(SC)nnc2-c2cnccn2)c1 | -1.7 | i | 0.77 | 114.1 | nt | nt | -1.5 |
| CCN(CC)CCOc1nc(C)nc2c1oc1ccccc12 | -1.6 | i | 0.87 | 107.5 | nt | nt | -3.1 |
| C=CCN1C(=O)C(CC(=O)Nc2ccc(OCC)cc2)N(Cc2ccccn2)C1=S (configuration not stated) | nt | i | 0.92 | 102.8 | 20.0 | 73.8 | 2.0 |
| CC(=O)[C@@H]1[C@@H]2C(=O)N(c3ccc(F)c(Cl)c3)C(=O)[C@@H]2C2c3ccccc3C=CN21 (some centres not stated) | -0.9 | i | 1.27 | 103.7 | -63.0 | 86.9 | -6.1 |
| Cc1ccc2cc(C=O)c(Cl)nc2c1 | nt | i | 0.92 | 104.4 | nt | nt | 0.7 |
| CCOC(=O)c1ccc(NC(=O)c2ccccc2C)cc1 | -0.1 | i | 0.79 | 100.7 | -8.3 | 72.6 | -3.7 |
| COc1ccc(CCN(C(=S)Nc2ccccc2)C2CC(=O)N(c3ccccc3)C2=O)cc1 (configuration not stated) | -2.0 | i | 0.92 | 87.2 | -30.0 | 145.3 | -5.1 |
| Cc1cccc(-n2c(C)n[nH]c2=S)c1C | -1.4 | i | 0.88 | 53.6 | -41.7 | 112.2 | -3.7 |
| COc1ccc(C(=O)NC2CCN(C(=S)NCc3ccco3)CC2)cc1 | 0.6 | i | 0.72 | 97.9 | -33.3 | 68.5 | 2.5 |
| CCOC(=O)C1CCCN(C(=O)c2cc3c(=O)n4cccc(C)c4nc3n2C)C1 (configuration not stated) | -0.9 | nt | nt | nt | -84.6 | 87.3 | 7.4 |
| O=c1cc(Cn2ccnc2)c2cc3c(cc2o1)CCC3 | -0.6 | i | 0.48 | 101.6 | -14.3 | 104.5 | 7.2 |
| CCOC(=O)C(NC(C)=O)(Nc1ccc(S(=O)(=O)Nc2ccncn2)cc1)C(F)(F)F (configuration not stated) | -1.8 | i | 0.9 | 108.6 | -35.0 | 127.8 | 13.9 |

Compound activity deposited in PubChem BioAssay by several laboratories.
